PI4K2A inh: inhibitors of human PI4K2A | Q9BTU6 | purified PI4K2A, ADP-Glo luminescence, 1 h; stronger effect = lower value | activity change, negative = inhibition, % at 76.9 µM | hit rate 0.13% among 420,000; in the data active = activity change below about -50%;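 note: -100% = wells without enzyme as full effect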
Target sequence (Q9BTU6 whole entry, looked up): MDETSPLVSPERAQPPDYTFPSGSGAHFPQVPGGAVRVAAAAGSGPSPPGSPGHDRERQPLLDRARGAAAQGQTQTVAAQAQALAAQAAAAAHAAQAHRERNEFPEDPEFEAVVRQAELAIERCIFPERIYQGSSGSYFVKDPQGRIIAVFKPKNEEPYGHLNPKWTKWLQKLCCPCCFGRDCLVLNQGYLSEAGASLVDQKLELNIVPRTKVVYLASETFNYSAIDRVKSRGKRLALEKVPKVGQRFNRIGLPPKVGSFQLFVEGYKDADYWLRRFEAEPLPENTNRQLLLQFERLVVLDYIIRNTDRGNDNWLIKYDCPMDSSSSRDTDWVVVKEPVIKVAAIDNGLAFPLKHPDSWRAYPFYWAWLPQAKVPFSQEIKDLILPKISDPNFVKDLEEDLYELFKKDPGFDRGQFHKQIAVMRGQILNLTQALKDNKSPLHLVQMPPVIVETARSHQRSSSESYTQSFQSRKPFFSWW
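In this quantitative HTS, ADP production by PI4K2A was quantified luminescently after 1 h at ambient temperature; 100 microM adenosine served as plate-quality control.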
RXFP1 ag: agonists of human relaxin receptor RXFP1; Q9HBX9; HEK293T-RXFP1 cAMP TR-FRET, 30 min; response scale: percent of porcine relaxin response, buffer zero; hit rate 0.3% among 370,000; Potency, µM (top dose mostly 57.5 µM), for inactives: at the top dose activation, most hits filed as activators; note: potency is the fitted concentration of half-maximal effect; % is set by controls: 0 for no effect and ±100 for the full control effect; nearly all actives have a fitted effect of over 60% in size; many of its hits are not listed in these tables
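Agonist response is measured as cAMP accumulation in an RXFP1-transfected HEK293T line under PDE4 inhibition. Values are scaled between buffer-only and 29 nM porcine relaxin, and EC50s come from standard Hill equation fits.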
GRP78 ERSR act: ER stress response induction in glioma. U87-MG GRP78 promoter luciferase reporter, 16 h. Potency, µM, for the others: at the highest dose activation, usual class: activators. hit rate 0.02% among 420,000. AID 602332; note: potency is the fitted concentration of half-maximal effect; series mostly up to about 76 µM; % of control where 0% means no effect; nearly all actives have a fitted effect of over 35% in size
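ERSR induction read as luciferase luminescence (Bright-Glo, 10 min at room temperature) in stably transfected human U87-MG glioma cells exposed to compounds for 16 h, using GRP78 as sensor.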
USP1-UAF1 inh: USP1/UAF1 (human) deubiquitinase inhibition | O94782 | recombinant USP1/UAF1, Ub-Rhodamine cleavage fluorescence | Potency, µM (top dose mostly 57.1 µM), for inactives: at the highest dose activity change, negative = inhibition, actives largely listed as inhibitors | hit rate 0.23% among 390,000 | AID 743255; note: potency is the fitted concentration of half-maximal effect; % is set by controls: 0 for no effect and ±100 for the full control effect; nearly all actives have a fitted effect of over 60% in size; inactives centre near -12
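1 nM enzyme complex + cpd, 15 min RT; start with Ub-Rho 150nM final; kinetic fluorescence ex 480/em 540, 6 reads q60 s. Buffer 50mM HEPES pH 7.8, 0.5mM EDTA, 0.1 mg/ml BSA, 1mM TCEP, 0.01% Tween-20.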
LDHA block: inhibitors of human lactate dehydrogenase A; P00338; purified LDHA, NADH/diaphorase-resazurin fluorescence; stronger effect = lower value; activity change, % (values are at about 110 or 230 µM); hit rate 0.15% among 480,000; in the data active = activity change below about -30%;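 note: plate controls were DMSO wells for no effect and wells without enzyme for full effect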
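Remaining NADH was detected by diaphorase (0.133 mg/mL) converting 37 µM resazurin to fluorescent resorufin, read at 0 and 20 minutes. The preceding 5-minute room-temperature reaction used 2 nM LDHA, 0.2 mM sodium pyruvate and 0.06 mM NADH at pH 7.4.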
Active calls of the source: *; x = not tested or not shown; & = joins results of further samples. Unless noted, calls come from the whole dose curve; as a rule, active = well fitted curve in the direction sought with a large enough effect; inconclusive = small, poorly fitted or top-dose-only effect, or another doubt; inactive = no such curve, though single readings can be large; an effect the other way counts as inactive or inconclusive. A portion of the library; rates above refer to the full screens.

SMILES	PI4K2A inh	RXFP1 ag	GRP78 ERSR act	USP1-UAF1 inh	LDHA block
CCN(CC)CC(=O)Nc1c(C)cccc1C	2&0&5&0&-2	1.4%&0.0%&0.3%	-6%&-3%&-3%&-2%&-5%&-4%&-5%&0%	-10%&-14%&-25%	-6&-5&-12
C1CCC2=NCCCN2CC1	-5	0.2%	-5%	-16%	-2
O=C(NC[C@@H]1CCCCN1)c1cc(OCC(F)(F)F)ccc1OCC(F)(F)F	x	x	-3%	x	x
CO[C@H]1/C=C/O[C@@]2(C)Oc3c(C)c(O)c4c(O)c(c(C=NN5CCN(C)CC5)c(O)c4c3C2=O)NC(=O)/C(C)=C\C=C\[C@H](C)[C@H](O)[C@@H](C)[C@@H](O)[C@@H](C)[C@H](OC(C)=O)[C@@H]1C	-13	-0.4%	1%	-23%	-14
CN(C)CCCN1c2ccccc2Sc2ccc(C(F)(F)F)cc21	3&-4&2	3.8%	-6%&-2%&-5%&-2%	-7%	-13&4
CC[n+]1c(/C=C/N(C)c2ccccc2)oc2ccc(Cl)cc21	-4	1.3%	0%	-21%	21
Nc1nc(Cl)c(N)c(NCC2(CO)CC(CCc3ccccc3)C2)n1 (stereo not drawn)	-3	x	-3%	-10%	9
S=c1nc(-c2ccccc2Cl)[nH][nH]1	-2	2.6%	-3%	-12%	2

8 consecutive entries already listed, quoted:
SMILES	PI4K2A inh	RXFP1 ag	GRP78 ERSR act	USP1-UAF1 inh	LDHA block
CCN(CC)CC(=O)Nc1c(C)cccc1C	2&0&5&0&-2	1.4%&0.0%&0.3%	-6%&-3%&-3%&-2%&-5%&-4%&-5%&0%	-10%&-14%&-25%	-6&-5&-12
C1CCC2=NCCCN2CC1	-5	0.2%	-5%	-16%	-2
O=C(NC[C@@H]1CCCCN1)c1cc(OCC(F)(F)F)ccc1OCC(F)(F)F	x	x	-3%	x	x
CO[C@H]1/C=C/O[C@@]2(C)Oc3c(C)c(O)c4c(O)c(c(C=NN5CCN(C)CC5)c(O)c4c3C2=O)NC(=O)/C(C)=C\C=C\[C@H](C)[C@H](O)[C@@H](C)[C@@H](O)[C@@H](C)[C@H](OC(C)=O)[C@@H]1C	-13	-0.4%	1%	-23%	-14
CN(C)CCCN1c2ccccc2Sc2ccc(C(F)(F)F)cc21	3&-4&2	3.8%	-6%&-2%&-5%&-2%	-7%	-13&4
CC[n+]1c(/C=C/N(C)c2ccccc2)oc2ccc(Cl)cc21	-4	1.3%	0%	-21%	21
Nc1nc(Cl)c(N)c(NCC2(CO)CC(CCc3ccccc3)C2)n1 (stereo not drawn)	-3	x	-3%	-10%	9
S=c1nc(-c2ccccc2Cl)[nH][nH]1	-2	2.6%	-3%	-12%	2

Bioassay records as filed in PubChem.
